Assay outcomes: PubChem, Fisher Drug Discovery Resource Center
NPYLR7 ag = agonists of mosquito NPYLR7 receptor, primary screen, cell-based, Aedes aegypti, calcium fluorescence, mosquito biting behavior; actives 0.15% (n = 270,000); Aedes aegypti neuropeptide Y-like receptor 7 (NPYLR7); HEK293T NPYLR7/Galpha15, GCaMP6s calcium fluorescence; activation, % at 10 µM; in the data active = activation above about 40%;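 note: 0% = vehicle and 100% = reference agonist at the receptor; some compounds past the cut are filed as inactive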
NPYLR7 ag max-min = also measured in NPYLR7 ag; calls as there; activation, %; measured here: Max-Min RFU normalised activation; some inactives read as strong as hits;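 span of the calcium signal over five minutes; 0% = vehicle and 100% = native peptide agonist; compound fluorescence can raise it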
* hit, by the source's call; & = joins results of further samples. Some of the compounds tested; count on the stated rates, not on these rows.

Fields – NPYLR7 ag, NPYLR7 ag max-min
Cc1nc(C)c(C(=O)N2CCOc3ccc(CN4CCC(OCc5ccccc5)CC4)cc3C2)s1
 : 4, 0
CC(=O)NCc1ccc(-c2csc(N(C)C)n2)cc1
 : 13, 15
CCCc1[nH]nc2c1C(c1ccc(Br)s1)C(C#N)C(=N)O2 (stereo not drawn)
 : 7, 4
CCc1nc2n(n1)C(=O)C(C(c1cccc(C)c1)N1CCN(CCO)CC1)S2 (stereo not drawn)
 : -5, -10
CCOc1cccc2sc(N(Cc3cccnc3)C(=O)C3=COCCO3)nc12
 : -25, -18
O=C(Cn1cnc([N+](=O)[O-])n1)Nc1ccc(Br)cc1
 : -11, -17
CCOCCN1N=C(C)Cn2c1nc1c2c(=O)n(Cc2ccc(F)cc2)c(=O)n1C
 : -6, -11
Nc1cc(-c2ccc(Cl)c(Cl)c2)nn1-c1ccc(C(=O)NC[C@@H]2CCCO2)cc1
 : 0, -3
CCOc1ccc(C2CC(c3ccc(C)cc3C)=NN2C(=O)CN2CCCC2)cc1 (stereo not drawn)
 : 13, 12
Cc1cccnc1C(NC(=O)C1CCN(Cc2cn(C)c3ccccc23)CC1)c1ccccc1 (stereo not drawn)
 : 9, 8
CCOc1ccccc1NC(=O)N1CCN(c2nc(-c3ccc(Cl)cc3)nc(C)c2C)CC1
 : 16, 13
Cc1ccc(-c2ccc(=O)n(Cc3ccccc3)n2)c(C)c1
 : 10, 3
COc1cccc2sc(N(CCCN(C)C)C(=O)CN3C(=O)c4ccccc4C3=O)nc12
 : 4, 1
CC1CN(C(=O)C2(C#N)CCCC2)CCN1C(=O)OC(C)(C)C (stereo not drawn)
 : 0, -2
CN(CCC(C)(C)O)Cc1cccc(Cl)c1F
 : 0, -4
Cn1c(=O)c2c(nc3n2CC(=O)N3c2ccc3c(c2)OCCO3)n(C)c1=O
 : 2, 2
O=C(Cc1cccnc1)Nc1cc2c(cc1Br)OCCO2
 : 6, 2
O=C(Nc1ccc(Br)cc1)c1cnn2c(C(F)(F)F)cc(-c3ccc(Br)cc3)nc12
 : 17, 18
COCCCN1C(=O)C(=O)C(=C(O)c2ccc(OC)cc2C)C1c1ccc(O)cc1 (stereo not drawn)
 : -4, -10
COc1cc2c(cc1OC)S(=O)(=O)OC(c1ccccc1)=C2
 : 4, 2
COc1ccc(OC)c(C2CC(c3ccc(F)cc3)=NN2C(=O)CN2CCCCC2C)c1 (stereo not drawn)
 : -4, 0
CC(=O)Nc1ccc(NC(=O)c2ccc3nc(-c4ccccc4)[nH]c3c2)cc1
 : -1, -3
Cn1c(=O)n(C)c2cc(S(=O)(=O)N3CCCCCC3)c(Br)cc21
 : -7, -12
CC(C)N(Cc1cc2ccccc2o1)CC1CCC(=O)N1 (stereo not drawn)
 : 6, 6
Cc1n[nH]c(C)c1CCCNC(C)C(=O)NC1CCCC1 (stereo not drawn)
 : 6, -1
COc1ccc(CC(=O)N2CCC3(CC2)NC(=O)c2c(C)cccc2N3)cc1
 : 2, 6
CCOC(=O)C(c1ccc(OC)c(OC)c1)C1C=CC(NC(=O)c2sc3ccccc3c2Cl)C1 (stereo not drawn)
 : 1, -1
O=C(C(c1ccccc1)c1ccccc1)N1CCc2ccccc21
 : 4, -1
COCCN1CC(C(=O)NCc2nc(C)c3c(n2)CCCC3)CCC1=O (stereo not drawn)
 : 5, -1
COc1ccc(-c2cc(C(F)(F)F)n3nc(C(=O)N4CCN(C(=O)c5ccco5)CC4)cc3n2)cc1
 : -5, -11
CCc1ccc(CN(C)Cc2ncccc2C(=O)O)nc1
 : 0, 50
CCCN(CCC)C(=O)CC12CC3CC(C1)CC(CC(=O)N(CCC)CCC)(C3)C2
 : 17, 7
CCC(C)NC(=O)Cn1nc(C(F)(F)F)c(Cl)c1C (stereo not drawn)
 : -19, -24
Cc1ccc(CC2SC(=Nc3ccccn3)NC2=O)cc1 (stereo not drawn)
 : -3, -8
CCC(O)CN(Cc1ccc(OC)cc1)Cc1cccc(C)c1 (stereo not drawn)
 : -1, 5
COc1cc(=O)n(C)c(SC)n1
 : 10, 3
COc1cc(/C=C2\SC(N)=NC2=O)cc(OC)c1O
 : 12, 5
COc1ccc(-c2nc(CN3CCN4C(=O)CNC(=O)C4C3)c(C)o2)c(F)c1 (stereo not drawn)
 : -1, -1
O=CNC1C(=O)NC(=O)NC1=NCc1ccccc1 (stereo not drawn)
 : 3, -2
COc1c2ccoc2nc2c(OC)c(OCC(O)C(C)(C)O)ccc12 (stereo not drawn)
 : -13&-3, -16&-5

13 consecutive entries from above, quoted:
Fields – NPYLR7 ag, NPYLR7 ag max-min
Cn1c(=O)n(C)c2cc(S(=O)(=O)N3CCCCCC3)c(Br)cc21
 : -7, -12
CC(C)N(Cc1cc2ccccc2o1)CC1CCC(=O)N1 (stereo not drawn)
 : 6, 6
Cc1n[nH]c(C)c1CCCNC(C)C(=O)NC1CCCC1 (stereo not drawn)
 : 6, -1
COc1ccc(CC(=O)N2CCC3(CC2)NC(=O)c2c(C)cccc2N3)cc1
 : 2, 6
CCOC(=O)C(c1ccc(OC)c(OC)c1)C1C=CC(NC(=O)c2sc3ccccc3c2Cl)C1 (stereo not drawn)
 : 1, -1
O=C(C(c1ccccc1)c1ccccc1)N1CCc2ccccc21
 : 4, -1
COCCN1CC(C(=O)NCc2nc(C)c3c(n2)CCCC3)CCC1=O (stereo not drawn)
 : 5, -1
COc1ccc(-c2cc(C(F)(F)F)n3nc(C(=O)N4CCN(C(=O)c5ccco5)CC4)cc3n2)cc1
 : -5, -11
CCc1ccc(CN(C)Cc2ncccc2C(=O)O)nc1
 : 0, 50
CCCN(CCC)C(=O)CC12CC3CC(C1)CC(CC(=O)N(CCC)CCC)(C3)C2
 : 17, 7
CCC(C)NC(=O)Cn1nc(C(F)(F)F)c(Cl)c1C (stereo not drawn)
 : -19, -24
Cc1ccc(CC2SC(=Nc3ccccn3)NC2=O)cc1 (stereo not drawn)
 : -3, -8
CCC(O)CN(Cc1ccc(OC)cc1)Cc1cccc(C)c1 (stereo not drawn)
 : -1, 5

Going on with the list.
Fields – NPYLR7 ag, NPYLR7 ag max-min
O=C(Nc1ccccc1)N1CCC2(CC1)SCCN2C(=O)c1ccc(C(F)(F)F)cc1
 : 23, 19
C#CCOCC(O)CN(CCC(C)C)Cc1cccc(C)c1 (stereo not drawn)
 : 8, 21
O=C(CN1C(=O)c2ccccc2S1(=O)=O)NC1CC2CCC1C2 (stereo not drawn)
 : 10, 8
O=C(c1ccco1)N1CCC(Cc2ccc(C(F)(F)F)cc2)CC1
 : 14, 8
COc1ccc2cc(C3CN(c4ncnc5[nH]ccc45)CCO3)ccc2c1 (stereo not drawn)
 : 7, 3
CC1(C)CC(=O)C2=C(C1)OC(=N)C(C#N)C2c1ccc([N+](=O)[O-])cc1 (stereo not drawn)
 : -2, -1
Cc1ccccc1CN1CCN(c2ncc(C(=O)NC(C)C)s2)C1=O
 : -1, -3
Cc1ccc(-c2ccnc(N3CCC(N4CCC(O)CC4)CC3)n2)c(C)n1
 : 9, 7
Cc1ccc(CN2CCN(C(=O)C3CCCN(CC(N)=O)C3)CC2=O)cc1 (stereo not drawn)
 : 2, -2
COc1cc(-c2nc(CN(C)Cc3nonc3C)c(C)o2)ccc1F
 : -10, -16
O=C(CC1CCCCC1)NCc1cc(-c2cc3ccccc3o2)on1
 : -1, -2
Cc1cccc(CSc2nnc(CNC(=O)Nc3ccc(F)cc3F)n2-c2cc(Cl)ccc2Cl)c1
 : 0, 1
CCN(CC)CCN(C)C1CCCCCCC1
 : -10, -15
Cc1nn2c3ccccc3n(CCN3CCCCC3)c2nc1=O
 : 15, 5
COc1ccc(-c2ccc(C(=O)N3CCC3c3cccc(OC)c3)o2)cc1 (stereo not drawn)
 : -4, -7
NC(=O)CSc1nnc2ccc(-c3cccc([N+](=O)[O-])c3)nn12
 : -11, -2
O=C(CN1CCOCC1)N1CCN(c2ccc([N+](=O)[O-])cc2)CC1
 : -5, -14
CCn1c(=NC(=O)c2ccn(C)n2)sc2cc(OC)c(OC)cc21
 : 1, 6
O=C(NC1CCSc2ccccc21)c1ccc(N2CCOCC2)nc1 (stereo not drawn)
 : 10, 8
O=C(Nc1ccccc1OCCCc1ccccc1)C1CCNCC1
 : 3, 1
CCOC(=O)[C@@H]1CSC2(CCN(C(=O)c3cccc4[nH]ccc34)CC2)N1
 : 2, 19
O=c1[nH]nc(Cc2ccccc2)n1-c1ccc2c(c1)OCO2
 : 2, 0
CCOC(=O)CNC(C)(C(=O)OC)c1cc(F)ccc1F (stereo not drawn)
 : 5, 3
C(=NNc1ccc2ccccc2n1)c1ccc2c(c1)OCCO2
 : 2, 1
N#Cc1ccc(NC(=O)CCN2CCc3sccc3C2)cc1
 : 9, 8
CC1=C(c2ccc(C)cc2)S(=O)(=O)NC1=NC(C)c1ccccc1 (stereo not drawn)
 : 1, -1
CC1Cc2cc(NC(=O)c3ccc(CN4CCC(O)CC4)cc3)ccc2O1 (stereo not drawn)
 : 15, 8
CCOC(=O)c1c(C)[nH]n2c(=O)cc(CN(CC)c3ccc(F)c(F)c3)nc12
 : 0, 8
CCCCCn1c(=O)c2c(nc3n(CCCCC)c(C)c(C)n23)n(C)c1=O
 : 11, 10
CCN(C(=O)c1cccc(NC(=O)c2cccnc2OC)c1)c1ccccc1
 : 1, -2
O=C(CCC1NC(=O)c2ccccc2NC1=O)Nc1nc2ccccc2[nH]1 (stereo not drawn)
 : 14, 14
C=CCN(CC(=O)N1CCc2sccc2C1c1ccc(OC)cc1)S(=O)(=O)c1ccc(F)cc1 (stereo not drawn)
 : -1, 11
CCOc1ccc(C(C)NCc2cc(C#N)n(C)c2C)cc1 (stereo not drawn)
 : 10, 8
CC(=O)Nc1ccc(S(=O)(=O)NCCc2csc3nc(-c4ccc(C)cc4)nn23)cc1
 : -10, -9
O=C(c1ccc2nc[nH]c2c1)N1CCc2nc(NCc3cccc(Oc4ccccc4)c3)ncc2C1
 : 3, -4
CC1(C(=O)Nc2ccccc2Cc2ccccc2)CCN1Cc1cccc2c1OCO2 (stereo not drawn)
 : 5, -4
CCn1nc(C)c(CNc2ncccc2C(=O)N2CCCCC2)c1C
 : 2, -1
CCCc1cnc2c(c1SCc1ccccc1Cl)c(=O)n(C)c(=O)n2C
 : 11, 9
O=S(=O)(Nc1cnc2ccccc2c1)N1CCCCC1
 : 13, 6
COc1ccc(S(=O)(=O)N2CCC(C)Sc3ccccc32)cc1C (stereo not drawn)
 : 14, 12
Cc1ccc(C(C2Sc3ncnn3C2=O)N2CCC(C(N)=O)CC2)cc1 (stereo not drawn)
 : 6, 3
O=C(CN1C(=O)S/C(=C\c2ccc(F)cc2)C1=O)NNS(=O)(=O)c1ccccc1
 : 6, 8
Oc1ccc(CCN=Cc2ccccc2)cc1
 : 17, 14
O=C(CC1COCCN1)NCCn1nc(-c2ccccc2)ccc1=O (stereo not drawn)
 : -4, -6
CSc1nnc(C)c(=O)n1COC(=O)c1cccc(Cl)c1
 : -1, -2
CCC(Oc1cc(Cl)ccc1Cl)C(=O)NNC(=O)/C=C/C(=O)O (stereo not drawn)
 : 1, 5
C=CCNc1nnc(SCC(=O)NCCc2ccc3c(c2)OCCO3)s1
 : -9, -14
Cc1ccc(Oc2ncccc2CNC(=O)C(C)c2ccccc2)cn1 (stereo not drawn)
 : -1, -2
O=c1[nH]c(=O)n(-c2ccc3nnc(-c4ccccc4)n3n2)cc1Cl
 : -4, -4
Cc1ccc(-c2c(C)oc(C)c2C(=O)NCc2ccccc2F)cc1
 : -17, -19
Cc1nc(Cc2ccc(-n3ccnc3-c3ccc(CO)o3)cc2)n[nH]1
 : 3, 0
CCOC(=O)N1CCN(C(=O)Nc2c[nH]c3ccccc23)CC1
 : -3, -9
CC(c1nccs1)N(C)C(=O)CCCCN1Cc2ccccc2C1=O (stereo not drawn)
 : 6, -3
COc1ccccc1CN1CC(C(=O)NCc2cnn(C)c2)CCC1=O (stereo not drawn)
 : 5, 1
CCOC(=O)c1cc2c(=O)n3cccc(C)c3nc2n(CC2CCCO2)c1=NC(C)=O (stereo not drawn)
 : 15, 26
Cc1cc(C)n(C)c(=O)c1C(=O)NCc1cc(-c2cccc(F)c2)no1
 : -2, -1
Cc1ccc(S(=O)(=O)CC(C)N2CCN(C3CCCCC3)CC2)cc1 (stereo not drawn)
 : 8, 8
Cc1cc(C(=O)N2CCN(Cc3ccccc3)CC2)nc2cc(C(C)(C)C)nn12
 : 1, 6
CN(C)c1ncccc1CNC(=O)c1ccccc1-n1cncn1
 : 5, 3
CC(=O)OCC(=O)[C@@]12OC(C)(C)O[C@@H]1CC1C3C[C@H](F)C4=CC(=O)C=C[C@]4(C)[C@@]3(F)[C@@H](O)C[C@@]12C (stereo partly drawn)
 : -1, -3

(cont.)
Fields – NPYLR7 ag, NPYLR7 ag max-min
CC(C)[C@H](NS(=O)(=O)c1ccccc1C(F)(F)F)c1nnc2c(C(F)(F)F)cccn12
 : 3, 5
O=C(NCCn1nc(-c2ccc(F)cc2)ccc1=O)c1ccc(C(F)(F)F)cc1
 : -6, -5
CCN(Cc1cc(C)[nH]n1)CC1CCCN(CCc2cccc(OC)c2)C1 (stereo not drawn)
 : 6, 3
CN(CC(=O)NC(C)(C)C)CC(N)=S
 : 13, 18
